Sfp PPTase inh = qHTS Assay for Inhibitors of Bacillus subtilis Sfp phosphopantetheinyl transferase (PPTase); 4'-phosphopantetheinyl transferase ffp (Bacillus subtilis), Q9F4F7; Biochemical Sfp PPTase activity, qHTS; Potency, µM, without a hit: max response, negative = inhibition, usual class: inhibitors; hit rate 3.5% among 310,000; AID 1490, 2009; active = well fitted inhibition curve with a large enough effect; inconclusive = small, poorly fitted or top-dose-only effect, or another doubt; inactive = no such curve, though single readings can be large or run the other way;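 also: the enzyme is Sfp with the accession as filed and its product quenches rhodamine fluorescence; potency is read from the fitted curve at half-maximal effect; 0% = enzyme reaction without inhibitor and -100% = no enzyme wells; top concentration of the series not given in the record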
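With Hepes-Na pH 7.6 buffer containing 10 mM MgCl2, Sfp (15 nM) modified BHQ-2-YbbR (12.5 uM) using rhodamine-CoA (5 uM). Two reads 30 minutes apart at 525/598 nm yielded each well's rate.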
Menin MLL FP FL = qHTS Assay for Inhibitors Targeting the Menin-MLL Interaction in MLL Related Leukemias: Competition With Fluorescein Labeled MLL-derived Peptide | 290,000 tested, under 10 active | Fluorescence polarization, fluorescein-MLL peptide displacement from menin | AID 1766, 2009 | FP activity change, % at 61.4 µM; inconclusive = falling polarisation curve, or a change in total fluorescence; inactive = total fluorescence flat and polarisation flat or rising; no compound was filed as active; the % refers to the polarisation; negative = inhibition;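 also: % of control where 0% means no effect; inhibitors lower the polarisation; unlabelled MLL peptide was the positive control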
TRPV1 potentiator = HTS Assay for Compounds that Act as Potentiators of the Vanilloid Receptor 1; TRPV1-expressing cells, Fluo-8 calcium influx, capsaicin EC20 potentiation; host cell line not named in the record; control for the full effect not named in the record; potentiation, % at 8.33 µM; hit rate 0.02% among 320,000; AID 540277, 2011; active means potentiation above 80%; inconclusive means 30% to 80%; inactive means below 30%; also: 0% is about no effect
Target sequence (Q8NER1 whole entry, looked up): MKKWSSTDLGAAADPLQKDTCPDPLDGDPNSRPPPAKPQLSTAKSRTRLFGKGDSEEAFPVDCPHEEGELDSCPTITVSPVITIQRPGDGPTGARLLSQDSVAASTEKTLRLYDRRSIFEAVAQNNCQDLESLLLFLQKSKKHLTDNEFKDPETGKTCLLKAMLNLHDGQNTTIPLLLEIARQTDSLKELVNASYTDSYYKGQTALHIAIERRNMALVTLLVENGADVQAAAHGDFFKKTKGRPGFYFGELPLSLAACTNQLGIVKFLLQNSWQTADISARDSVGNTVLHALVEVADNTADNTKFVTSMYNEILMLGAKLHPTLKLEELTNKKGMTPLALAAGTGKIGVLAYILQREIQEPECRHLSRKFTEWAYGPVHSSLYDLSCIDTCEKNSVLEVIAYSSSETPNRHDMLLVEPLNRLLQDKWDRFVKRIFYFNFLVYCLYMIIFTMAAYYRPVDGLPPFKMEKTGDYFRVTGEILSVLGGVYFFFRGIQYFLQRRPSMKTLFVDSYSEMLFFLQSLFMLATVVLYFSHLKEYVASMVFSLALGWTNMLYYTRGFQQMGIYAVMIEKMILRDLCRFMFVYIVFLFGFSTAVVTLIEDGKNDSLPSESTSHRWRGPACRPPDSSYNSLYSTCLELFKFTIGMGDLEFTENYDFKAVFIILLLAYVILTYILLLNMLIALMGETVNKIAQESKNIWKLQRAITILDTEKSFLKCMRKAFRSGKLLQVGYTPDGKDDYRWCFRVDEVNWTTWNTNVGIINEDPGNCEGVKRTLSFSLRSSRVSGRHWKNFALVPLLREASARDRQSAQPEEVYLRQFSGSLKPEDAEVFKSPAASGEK
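Fluo-8 calcium influx in TRPV1-expressing cells, kinetic read (ex 480/em 520 nm). Compound added and read 3 min for agonist activity, followed by capsaicin at EC20 final and 2 min further read for enhancement.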
ClpP mod = qHTS Assay for Activators of ClpP; Potency, µM (series often up to 57.5 µM), for inactives: at the top dose activity change, negative = active; ATP-dependent Clp protease proteolytic subunit (Bacillus subtilis (strain 168)), P80244; hit rate 1.9% among 340,000; purified B. subtilis ClpP, FRET peptide cleavage, 20 min; active = well fitted falling curve with a large enough effect; inconclusive = small, poorly fitted or top-dose-only effect; inactive = no such curve, though single readings can be large or run the other way; also: potency is read from the fitted curve at half-maximal effect; the source files actives as falling curves though it sought activators and does not explain the sign; nearly all actives have a fitted effect of over 65% in size; many hits overshoot -100%
Target sequence (P80244 whole entry, looked up): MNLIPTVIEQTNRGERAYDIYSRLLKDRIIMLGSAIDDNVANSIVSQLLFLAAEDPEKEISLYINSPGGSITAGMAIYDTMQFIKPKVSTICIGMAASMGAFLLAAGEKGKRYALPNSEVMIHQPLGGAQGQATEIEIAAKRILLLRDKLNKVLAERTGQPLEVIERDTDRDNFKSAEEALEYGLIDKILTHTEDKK
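Purified B. subtilis ClpP, 10 microg/mL final in Tris/HCl pH8 with KCl, BSA, glycerol and Tween-20, cleaved an Abz/nitrotyrosine-quenched decapeptide. Fluorescence (ex 320, em 430) was read at 0 and 20 min at room temperature. Delta was normalized to 5.8 microM ADEP and DMSO/no-enzyme controls.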
TRPML1 agonist = qHTS for Agonists of the Human Mucolipin Transient Receptor Potential 1 (TRPML1). Mucolipin-1 (Homo sapiens), Q9GZU1. TRPML1-expressing cells, Ca2+ dye fluorescence, FDSS; host cell line not named in the record; reference of the full effect not given here. activation, % (concentration not given with the values). hit rate 0.12% among 410,000; in the data active = activation above about 50%; inconclusive = about 30% to 50%; inactive = below about 30%; also: 0% is about no effect; the text of the record puts the active cut at 80%
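Kinetic FDSS Ca2+ read in Tet-induced TRPML1-DL cells (ABD Ca8 dye plus quencher, 45-90 min RT loading): baseline, then compound, then 110 s agonist window; EC80 agonist 54-4 at 4uM final added afterwards for a 110 s antagonist window.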
PINK1 modulator = A Quantitative High throughput Screen to Identify Chemical Modulators of PINK1 Expression | AID 624263, 2012 | Potency, µM (doses to about 76.6 µM), for the others: top-dose activation (PINK1 increase), most hits filed as activators | PINK1 immunofluorescence, high-content cytometry, 24 h | hit rate 0.2% among 410,000; active = well fitted activation curve with a large enough effect; inconclusive = small, poorly fitted or top-dose-only effect; inactive = flat fitted curve, though single readings scatter; cell line not stated here;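 also: potency is read from the fitted curve at half-maximal effect; % of control where 0% means no effect; nearly all actives have a fitted effect of over 65% in size; a mitochondrial uncoupler was the plate control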
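Stable cell line treated 24 h with compounds at 5 concentrations (CCCP controls), then fixed and immunostained for PINK1 plus nuclear and cell stains; PINK1 immunofluorescence quantified by laser-scanning microplate cytometry.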
TRPML1 inh = qHTS for Inhibitors of the Human Mucolipin Transient Receptor Potential 1 (TRPML1). Mucolipin-1 (Homo sapiens), Q9GZU1. TRPML1-inducible cells, Ca2+ dye fluorescence, FDSS; active compounds read low; inhibition of EC80 agonist-evoked calcium signal. activity change, negative = inhibition, % (test concentration not listed). hit rate 0.02% among 390,000. AID 624415, 2012; in the data active means activity change below about -50%; inconclusive means about -30% to -50%; inactive means above about -30%;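 also: stimulus is agonist 54-4 at its EC80 concentration; % is scaled to controls: 0 for no effect and ±100 for the full control effect; compound concentration not given in the record; the text of the record puts the active cut at -80%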
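TRPML1-DL cells, Tet-induced overnight (~16 h, 37 °C) at 1,500 cells/well, were loaded with Ca8 no-wash dye plus quencher for 45-90 min at room temperature. Compounds were pinned during FDSS kinetic reading; agonist 54-4 at EC80 (4 uM final) then added.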
Numbers without * were called inactive; [ ] = dose if it differs, or a comment.

Results for CC(C(=O)Nc1ccccc1)N1C(=O)c2ccccc2C1=O (configuration not stated) ?
Sfp PPTase inh: 6.6%; Menin MLL FP FL: 0.2; TRPV1 potentiator: -2.1; TRPML1 agonist: -0.2; PINK1 modulator: 0.7%; TRPML1 inh: -11.2

How did COc1ccc(C(=O)Cn2cnc3ccc(Cl)cc3c2=O)cc1F do in these assays?
Sfp PPTase inh: 9.6%; Menin MLL FP FL: 10.9; TRPV1 potentiator: -20.1; TRPML1 agonist: -0.5; PINK1 modulator: 10.0%; TRPML1 inh: -0.7

What do the screens show for `CCNC(=O)c1ccccc1SCc1ccccc1`?
Sfp PPTase inh: -9.2%; Menin MLL FP FL: 5.6; TRPV1 potentiator: 8.0; TRPML1 agonist: -0.8; PINK1 modulator: 1.2%; TRPML1 inh: 8.7

Results for Cc1cccc(C)c1NS(=O)(=O)c1ccc2c(c1)NC(=O)CO2 ?
Sfp PPTase inh: 22.2%; Menin MLL FP FL: -3.5; TRPV1 potentiator: -8.8; TRPML1 agonist: 0.7; PINK1 modulator: -0.8%; TRPML1 inh: -3.4

What do the screens show for `CCCCCC(=O)N1C[C@H](n2cc(-c3ccc(F)cc3)nn2)[C@@H](O)C[C@@H]1c1ccc(Cl)cc1`?
ClpP mod: 0.4%; TRPML1 agonist: -0.1; PINK1 modulator: inconclusive; TRPML1 inh: -3.4

How did COc1ccc(Br)cc1/C=C/C(=O)c1ccc(NC(C)=O)cc1 do in these assays?
Sfp PPTase inh: -1.8%; Menin MLL FP FL: -0.6; TRPV1 potentiator: 22.4; ClpP mod: -2.6%; TRPML1 agonist: 5.6; PINK1 modulator: -1.1%; TRPML1 inh: -6.9

How did CC(=O)N1CCC(C(=O)Nc2ccc(S(=O)(=O)N3CCC(C)CC3)cc2)CC1 do in these assays?
Sfp PPTase inh: 8.1%; TRPV1 potentiator: -2.3; ClpP mod: -19.0%; TRPML1 agonist: 0.1; PINK1 modulator: 0.5%; TRPML1 inh: -16.1

How did CC(C)CC(=O)NN1CCCCC1 do in these assays?
Sfp PPTase inh: 20.3%; Menin MLL FP FL: 1.2; TRPV1 potentiator: 2.3; ClpP mod: -3.9%; TRPML1 agonist: -0.8; PINK1 modulator: 3.7%; TRPML1 inh: 5.2

How did COc1ccc(-n2c(SCC(=O)Nc3ccc(Br)cc3)nc(O)cc2=O)cc1 do in these assays?
Sfp PPTase inh: 11.5%; Menin MLL FP FL: 2.8; TRPV1 potentiator: 11.4; ClpP mod: 25.1µM*; TRPML1 agonist: -0.1; PINK1 modulator: -1.9%; TRPML1 inh: -2.9

Results for N#CC1=C(c2ccccc2)/C(=C/c2ccccc2)OC1=O ?
Sfp PPTase inh: inconclusive; Menin MLL FP FL: -1.1; TRPV1 potentiator: -19.4; ClpP mod: 5.1%; TRPML1 agonist: 6.0; PINK1 modulator: -0.3%; TRPML1 inh: 13.3

Results for O=C(O)C1CCCN1S(=O)(=O)c1ccc(Cl)c(Cl)c1 (configuration not stated) ?
Sfp PPTase inh: 14.3%; Menin MLL FP FL: 2.9; TRPV1 potentiator: -2.5; ClpP mod: -3.0%; TRPML1 agonist: 0.3; TRPML1 inh: 6.4

How did Cc1ccc(S(=O)(=O)N2CCC(C(=O)OCC(=O)N3CC(C)CC(C)C3)CC2)cc1C (configuration not stated) do in these assays?
TRPV1 potentiator: -13.0; TRPML1 agonist: 0.8; PINK1 modulator: -1.1%; TRPML1 inh: 8.1

How did COc1cc(OC)cc(C(=O)N[C@H](C(=O)Nc2ccc(NC(C)=O)cc2)C(C)C)c1 do in these assays?
Sfp PPTase inh: 6.7%; Menin MLL FP FL: -3.1; TRPV1 potentiator: -2.9; ClpP mod: 0.7%; TRPML1 agonist: 8.6; PINK1 modulator: 6.2%; TRPML1 inh: -10.9

How did COc1cccc(NC(=O)CSc2nnc(Cc3cccn3C)n2-c2ccc(F)cc2)c1 do in these assays?
Sfp PPTase inh: -15.2%; Menin MLL FP FL: 0.7; TRPV1 potentiator: 5.1; ClpP mod: 9.0%; TRPML1 agonist: 1.3; PINK1 modulator: -0.7%; TRPML1 inh: 3.1

How did COc1cccc2cc(C(=O)n3ccc(C)n3)c(=O)oc12 do in these assays?
Sfp PPTase inh: 6.4%; Menin MLL FP FL: 1.7; TRPV1 potentiator: 1.0; ClpP mod: 1.2%; TRPML1 agonist: -0.4; PINK1 modulator: -0.1%; TRPML1 inh: 0.0

Results for CCN(CC(=O)Nc1ccc(NC(C)=O)cc1)C(=O)C1(c2ccc(Cl)cc2)CCC1 ?
ClpP mod: -2.2%; TRPML1 agonist: -0.2; PINK1 modulator: -1.7%; TRPML1 inh: 24.6

What do the screens show for `Cc1c(Cl)c(C(=O)Nc2nc3ccccc3n2CCN2CCCCC2)nn1C`?
Sfp PPTase inh: inconclusive; Menin MLL FP FL: 1.2; TRPV1 potentiator: 12.2

What do the screens show for `C(=NOCc1ccccc1)c1cccnc1`?
ClpP mod: -1.4%; TRPML1 agonist: -0.1; PINK1 modulator: -0.3%; TRPML1 inh: -0.3

How did Cc1cc(C)n(-c2ccc(Oc3ccccc3)c(S(=O)(=O)O)c2)n1 do in these assays?
Sfp PPTase inh: -7.5%; Menin MLL FP FL: 0.1; TRPV1 potentiator: 5.3; TRPML1 agonist: 0.6; PINK1 modulator: 2.4%; TRPML1 inh: 1.1

How did OC1OC[C@@H](O)[C@H](O)[C@H]1O (some centres not stated) do in these assays?
Sfp PPTase inh: 4.9%; Menin MLL FP FL: -5.1; TRPV1 potentiator: 13.7

What do the screens show for `CCOc1ccccc1NC(=O)NNS(=O)(=O)c1cc(C)ccc1C`?
Sfp PPTase inh: 0.8%; Menin MLL FP FL: -5.6; TRPV1 potentiator: 10.6; ClpP mod: 1.0%; TRPML1 agonist: 1.6; PINK1 modulator: 2.9%; TRPML1 inh: -17.7

How did C=CCn1c2ccccc2n2nc(C)c(=O)nc12 do in these assays?
Sfp PPTase inh: 19.0%; Menin MLL FP FL: -1.2; TRPV1 potentiator: 2.2; ClpP mod: 22.4µM*; TRPML1 agonist: 1.0; PINK1 modulator: -0.7%; TRPML1 inh: 18.2

What do the screens show for `COC(=O)Cc1c(O)ccn(CCc2c[nH]c3ccc(OC)cc23)c1=O`?
Sfp PPTase inh: -1.2%; Menin MLL FP FL: 0.4; TRPV1 potentiator: 2.6; ClpP mod: -4.8%; TRPML1 agonist: -0.4; PINK1 modulator: 0.3%; TRPML1 inh: -9.8

How did CC(=O)Oc1ccc(C(=O)Nc2cc(C)ccc2NC(=O)COc2ccccc2)cc1 do in these assays?
Sfp PPTase inh: -27.4%; Menin MLL FP FL: 3.6; TRPV1 potentiator: -13.6; ClpP mod: -12.2%; TRPML1 agonist: 0.3; PINK1 modulator: 4.3%; TRPML1 inh: 14.3

Results for Cc1ccc(Cc2c(C)nc3nc(SCC(=O)NCc4ccco4)nn3c2C)cc1 ?
Sfp PPTase inh: -37.0%; Menin MLL FP FL: 2.6; TRPV1 potentiator: 1.7; ClpP mod: -1.9%; TRPML1 agonist: -0.8; PINK1 modulator: 3.4%; TRPML1 inh: 35.1

How did OCc1nc2ccccc2n1CCCOc1ccc(Br)cc1 do in these assays?
Sfp PPTase inh: -16.6%; Menin MLL FP FL: 1.5; TRPV1 potentiator: -6.3; ClpP mod: 1.3%; TRPML1 agonist: -1.3; PINK1 modulator: -2.1%; TRPML1 inh: 10.0

Results for CN(CCC#N)C(=O)CSc1ncnc2sc(-c3ccccc3)cc12 ?
Sfp PPTase inh: inconclusive; Menin MLL FP FL: 7.4; TRPV1 potentiator: 4.6; ClpP mod: -28.3%; TRPML1 agonist: 0.0; PINK1 modulator: -2.0%; TRPML1 inh: 41.1

Results for Cc1ccc(NC(=O)CN2CCC(Cc3ccccc3)CC2)cc1S(=O)(=O)N(C)C ?
Sfp PPTase inh: -30.0%; Menin MLL FP FL: -0.2; TRPV1 potentiator: -8.6; ClpP mod: -0.6%; TRPML1 agonist: 1.5; PINK1 modulator: 9.8%; TRPML1 inh: -11.6

What do the screens show for `CC(/C=C/c1ccccc1)=N\NC(=O)CSc1ccccn1`?
Sfp PPTase inh: 17.6%; Menin MLL FP FL: -1.3; TRPV1 potentiator: 12.5; ClpP mod: -2.9%; TRPML1 agonist: -1.0; PINK1 modulator: 0.0%; TRPML1 inh: -4.9

How did COc1ccc(/C=N\NC(=O)c2ccc(-c3ccccc3)cc2)cc1COC(C)=O do in these assays?
Sfp PPTase inh: 5.8%; TRPV1 potentiator: 8.6; ClpP mod: inconclusive; TRPML1 agonist: -0.1; PINK1 modulator: 0.9%; TRPML1 inh: 0.5

What do the screens show for `O=C(COc1ccc2c3c(c(=O)oc2c1)CCCC3)N1C[C@H]2C[C@@H](C1)c1cccc(=O)n1C2`?
Sfp PPTase inh: 16.8%; Menin MLL FP FL: -3.2; TRPV1 potentiator: 0.1; ClpP mod: 4.8%; PINK1 modulator: 0.2%

What do the screens show for `Cc1ccc(C)c(Cn2nnc3c(=O)[nH]c(C4CCCN(C(=O)C5CCC5)C4)nc32)c1` (configuration not stated)?
Sfp PPTase inh: -10.7%; Menin MLL FP FL: -0.1; TRPV1 potentiator: 6.5; ClpP mod: -1.4%; TRPML1 agonist: 3.9; PINK1 modulator: -1.2%[38.3 µM]; TRPML1 inh: 14.3

What do the screens show for `Cc1ccc(-n2c(=O)[nH]c3ncccc3c2=O)cc1`?
Sfp PPTase inh: -3.7%; Menin MLL FP FL: -2.2; TRPV1 potentiator: -1.4; ClpP mod: 4.0%; TRPML1 agonist: 0.3; PINK1 modulator: 2.7%; TRPML1 inh: 23.0

What do the screens show for `O=C(CCNC(=O)c1ccc(Cl)cc1)NCCCN1CCOCC1`?
TRPV1 potentiator: 5.6; ClpP mod: -1.8%; TRPML1 agonist: -1.0; PINK1 modulator: -0.4%; TRPML1 inh: 3.9

What do the screens show for `COc1ccc(C(NC(=O)C2CCN(CCCOc3ccccc3)CC2)c2cccs2)cc1` (configuration not stated)?
ClpP mod: -2.9%; TRPML1 agonist: 1.9; PINK1 modulator: -0.1%

Screening results deposited in PubChem by National Center for Advancing Translational Sciences (NCATS).
